Autofluor counter: flagged as autofluorescent in microsphere protease counterscreen | AID 624483 | compound autofluorescence counterscreen, microsphere flow cytometry; hits give high values | hit rate 3.1% among 360,000 | fluorescence intensity (concentration not given with the values);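 active means at least 3 SD above the mean of all compounds, about 16000 in these data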;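 further: 100 nL of 1 mM stock went into each well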
BJeLR viability: BJeLR cell viability loss. BJeLR (HRASV12) viability, CellTiter-Glo ATP luminescence, 48 h; reference of the scale not given here. inhibition, % (concentration not given with the values). hit rate 0.17% among 300,000. AID 1554;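 active means replicate mean above 50%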;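 further: 50 nL library stock added to about 25 µL; numbers are from one replicate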
PrP UTR inh: inhibition of PrP 5' UTR reporter expression. cell-based PrP 5' UTR mRNA reporter, plate reader. inhibition, % (concentration not given with the values). hit rate 0.35% among 340,000;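 active means every replicate at 50% or more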;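 further: 0 = median of the neutral control wells; tested in H4 reporter cells; numbers are from one replicate; inactives centre near -14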
Mtb hypoxia inh: reduces hypoxia-regulated biosensor signal in M. tuberculosis; M. tuberculosis hypoxia-regulated fluorescent reporter, fluorescence; fluorescence inhibition, % (concentration not given with the values); hit rate 0.1% among 300,000;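 active means 35 to 45% if threefold the growth effect, above 45% if 1.5-fold the growth effect; inactive means the rest, general growth blockers included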;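 further: wells of about 50 µL received 100 nL stock; 0% = vehicle wells and 100% = reference inhibitor wells; whole bacteria with a GFP reporter of the hypoxia response; strong numbers were not always called active; many hits fall short of the cut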
Sa ugtP lethal: compounds lethal to S. aureus RN4220 ugtP deletion mutant; OD600 growth, 16 h; some inactives read as strong as hits; growth inhibition, % (no concentration beside the values); hit rate 0.54% among 330,000;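 active means z-score under -3 and OD600 up to 0.15 on both plates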;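 further: plate controls were untreated wells for no effect and antibiotic for full effect; wells of about 80 µL received 100 nL stock; the first replicate is given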
RN4220 kill: kills Staphylococcus aureus RN4220; inhibition, % (test concentration not listed); hit rate 0.33% among 330,000; S. aureus RN4220 growth, OD600, 16 h;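 active means z-score of -3 or lower and OD600 up to 0.18 on both plates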;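 further: plate controls were untreated cells for no effect and reference antibiotic for full effect; stock transfer was 100 nL into about 80 µL; one replicate is shown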
Mtb hypoxia inh growth: recorded beside Mtb hypoxia inh, whose call it bears; growth inhibition, %; measured here: M. tuberculosis growth (absorbance);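 0% = vehicle and 100% = reference antibiotic; read after six days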
The depositor's hits bear a star; · = no result given. Hits appear at their usual frequency; about 4% have a hit in one of these screens.

SMILES | Autofluor counter | BJeLR viability | PrP UTR inh | Mtb hypoxia inh | Mtb hypoxia inh growth | Sa ugtP lethal | RN4220 kill
COC(=O)c1sccc1NC(=O)c1ccccc1Br | 4644 | -7 | -10 | -4 | 9 | 17 | 1.6
Cc1cccn2cc(CNC(=O)C3CCCCC3)nc12 | 3370 | -1 | -1 | -2 | 4 | -4 | 2.3
CSc1ccccc1OCc1cc(C(=O)N2CCN(Cc3nccn3C)CC2)no1 | 5880 | 14 | -9 | 3 | 1 | 4 | 1.1
O=C(Nc1nnc(COc2ccc(Cl)cc2)s1)c1ccco1 | 3108 | -14 | -15 | 4 | 0 | 11 | 3.4
Brc1ccc(C2=Nn3c(nnc3-c3n[nH]c4c3CCC4)SC2)cc1 | 2695 | 48 | 42 | · | · | -8 | 4.8
C=CCOc1ccc(/C=C/C(=O)OCC(=O)NCc2cccc(OC)c2)cc1 | 3055 | · | -6 | -7 | -4 | 8 | 7.6
O=C(O)c1ccccc1N/N=C/C1=C(N2CCOCC2)C(=C\c2ccccc2)/CC1 | 3349 | -8 | -12 | · | · | · | ·
O=C(NCCN1CCN(c2cccc(Cl)c2)CC1)C1CCCN(S(=O)(=O)c2cnc[nH]2)C1 (stereo not drawn) | 5479 | · | 2 | · | · | 9 | 0.3
CCCn1c(SCc2nc3sc(C)c(C)c3c(=O)[nH]2)nc2ccccc2c1=O | 5450 | -15 | -10 | -15 | -10 | -7 | -0.7
CC(C)(C)c1cn(-c2ccccc2)c(=S)[nH]1 | 6819 | -23 | 4 | 6 | 2 | 2 | 1.9

The list goes on, overlapping the part above by five compounds.
SMILES | Autofluor counter | BJeLR viability | PrP UTR inh | Mtb hypoxia inh | Mtb hypoxia inh growth | Sa ugtP lethal | RN4220 kill
C=CCOc1ccc(/C=C/C(=O)OCC(=O)NCc2cccc(OC)c2)cc1 | 3055 | · | -6 | -7 | -4 | 8 | 7.6
O=C(O)c1ccccc1N/N=C/C1=C(N2CCOCC2)C(=C\c2ccccc2)/CC1 | 3349 | -8 | -12 | · | · | · | ·
O=C(NCCN1CCN(c2cccc(Cl)c2)CC1)C1CCCN(S(=O)(=O)c2cnc[nH]2)C1 (stereo not drawn) | 5479 | · | 2 | · | · | 9 | 0.3
CCCn1c(SCc2nc3sc(C)c(C)c3c(=O)[nH]2)nc2ccccc2c1=O | 5450 | -15 | -10 | -15 | -10 | -7 | -0.7
CC(C)(C)c1cn(-c2ccccc2)c(=S)[nH]1 | 6819 | -23 | 4 | 6 | 2 | 2 | 1.9
COc1ccc(-n2c(Cc3cccc([N+](=O)[O-])c3)nc3ccccc3c2=O)cc1 | 1921 | 10 | -16 | 9 | 3 | 4 | 2.7
Cc1ccc(CNC(=O)c2ccc3c(=O)n4c(-c5ccc(C)cc5)csc4nc3c2)cc1 | 3182 | 2 | 4 | 10 | 9 | -9 | 8.2
CC(=O)c1cccc(NC(=O)c2ccc(S(=O)(=O)N3CCCCC3)cc2)c1 | 4747 | 11 | -15 | · | · | -2 | 4.0
COc1ccc(CN(C)C(=S)Nc2ccc(Cl)cc2Cl)cc1 | 3130 | -2 | -3 | -4 | 2 | 7 | 5.4
CCOC(=O)N1CCC(N2CCN(Cc3ccccc3)C(CCO)C2)CC1 (stereo not drawn) | 4339 | 4 | -16 | 7 | 1 | 3 | 4.2
O=[N+]([O-])c1cccc(-c2ccc(C(=S)N3CCN(c4ccccc4)CC3)o2)c1 | · | 0 | · | 2 | 1 | 13 | 2.3
Cc1ccc(NC(=O)C2C3CCCC2C3c2ccccc2)cc1C (stereo not drawn) | 2406 | 8 | -12 | 17 | 1 | 1 | 2.9
O=C(CCN1CCN(c2ccccc2)CC1)Nc1ccccc1F | 4003 | 14 | 2 | 3 | 8 | 8 | 1.6
O=C(N1CCN(Cc2ccc3c(c2)OCO3)CC1)C12CC3CC(CC(C3)C1)C2 | · | -1 | · | 7 | 2 | 4 | 8.0
O=C(NN=Cc1ccc2c(c1)OCO2)c1cncc(Br)c1 | · | · | · | 2 | 1 | -1 | -0.2

Some entries already given with just Autofluor counter, Sa ugtP lethal and PrP UTR inh.
structure	Autofluor counter	Sa ugtP lethal	PrP UTR inh
CC(=O)c1cccc(NC(=O)c2ccc(S(=O)(=O)N3CCCCC3)cc2)c1	4747	-2	-15
COC(=O)c1sccc1NC(=O)c1ccccc1Br	4644	17	-10
Cc1ccc(CNC(=O)c2ccc3c(=O)n4c(-c5ccc(C)cc5)csc4nc3c2)cc1	3182	-9	4

(more compounds)
SMILES | Autofluor counter | BJeLR viability | PrP UTR inh | Mtb hypoxia inh | Mtb hypoxia inh growth | Sa ugtP lethal | RN4220 kill
CC1C(=O)N(Cc2ccccc2F)c2ccccc2N1C(=O)c1c(F)cccc1F (stereo not drawn) | 3805 | 20 | · | 1 | 4 | 4 | 6.9
COCCCNC(=O)CC(=O)NN=Cc1ccc(SC)cc1 | · | · | · | 3 | 6 | 4 | 2.9
Cc1nc(C(=O)N(C)C)nn1-c1ccc([N+](=O)[O-])cc1 | 4579 | -3 | -22 | 1 | 18 | 3 | 3.5
N#CCCn1c(O)c(N=NC(=O)CNC(=O)c2cccs2)c2ccccc21 | 6276 | -4 | -31 | 5 | 5 | 3 | 1.9
Cc1ccc2cc(C#N)c(N3CCCN(C(=O)c4cnccn4)CC3)nc2c1 | 3943 | -5 | -25 | -1 | 7 | -6 | 0.0
Fc1ccc(/C=N/NC(=S)Nc2cccnc2)cc1F | 4492 | 1 | -33 | · | · | · | ·
CC(CC(=O)Nc1cc(C)ccn1)=NNC(=O)c1cccc(F)c1 | · | · | · | 1 | -5 | 5 | 1.0
Clc1ccc(N/N=C/c2ccncc2)cc1Cl | 2005 | -4 | -80 | · | · | · | ·
O=C(N/N=C/C=C/c1ccccc1)c1ccc(Br)cc1 | 7244 | -1 | -16 | · | · | · | ·
CCOC(=O)c1cccc(Nc2ncnc3ccccc23)c1 | 2761 | 1 | -11 | · | · | 0 | 1.1
CN(C)C=Nc1nc2nccc(-c3cccc(Cl)c3)n2n1 | · | · | · | 3 | -2 | 4 | 0.7
CCC1CCCCN1CC(O)COCc1cccc(OC)c1 (stereo not drawn) | 4037 | -7 | -18 | 3 | 4 | 10 | 3.8
O=C(COC(=O)c1cc(=O)[nH]c2ccccc12)NC1CCCCC1 | 3673 | · | -8 | 2 | 14 | 5 | -0.9
Cc1ccc(C)c(S(=O)(=O)NNC(=O)c2sc(NS(=O)(=O)c3ccccc3)nc2C)c1 | 4452 | 5 | 1 | 3 | -2 | 2 | -2.8
COc1nc(Oc2ccc(/C=N/O)cc2)nc(N(C)C)n1 | 5895 | 0 | -19 | · | · | · | ·
O=C(CSc1cccc2cccnc12)NN=Cc1ccc(O)cc1 | · | · | · | 3 | -5 | 1 | 1.4
CCOc1cc(/C=C(\C#N)C(=O)NCC2CCCO2)ccc1OCC(N)=O (stereo not drawn) | 2596 | -4 | -12 | 5 | 1 | 1 | 5.6
CC(=O)c1cccc(NC(=O)CSc2nc(N3CCOCC3)nc(N3CCOCC3)n2)c1 | 5780 | 1 | -8 | -2 | 12 | -4 | -0.4
COc1ccc(-c2cc3c(=O)n(CC(=O)NCCN4CCCC4)nc(C)n3n2)cc1 | 5760 | -11 | -14 | -3 | 4 | -1 | 0.7
CCn1c(=O)c(=O)[nH]c2c(=O)oc3ccc(S(=O)(=O)Nc4ccc(OC)cc4)cc3c21 | 3020 | 4 | 69* | -2 | 0 | 3 | 3.5
O=C1C=C(c2cccc(CO)c2)CC(c2ccc(F)cc2)C1 (stereo not drawn) | · | · | · | 16 | 6 | -2 | -0.7
CC1Nc2ccccc2C(=O)N1NS(=O)(=O)c1ccccc1 (stereo not drawn) | 2398 | -23 | -46 | -8 | 3 | 2 | 7.5
COc1cccc(/C=C/C(=O)NNC(=O)c2ccncc2)c1OC | 9523 | · | -17 | -3 | 2 | -4 | -2.0
CC(C)[C@H](NC(=O)c1ccccc1)C(=O)OCC(=O)NCc1ccc2c(c1)OCO2 | 2726 | · | -16 | -3 | 0 | 8 | 3.9
CCOC(=O)c1ccc(N2NC(=O)/C(=C/c3ccc(OC(=O)c4ccco4)c(OC)c3)C2=O)cc1 | · | 7 | · | 19 | 1 | 13 | 12
COC(=O)c1ccc(CN2CCC(CO)(CCOc3ccccc3)CC2)cc1 | 3858 | 2 | -8 | 4 | 1 | 4 | 4.8
Cc1ccc(N(CC(=O)Nc2ccc3c(c2)OCCO3)S(C)(=O)=O)cc1 | 4770 | -3 | -48 | -7 | -13 | 1 | 1.9
Clc1ccc(Cn2cccn2)cn1 | 4912 | 12 | -13 | 0 | -12 | 5 | 7.3
CC(=O)Nc1cc(Br)ccc1O | 4406 | -1 | -17 | -3 | 0 | 4 | 1.8
CCc1nnc(NS(=O)(=O)c2ccc(NC(=O)Nc3ccc(OC)cc3)cc2)s1 | 3596 | 7 | -24 | 6 | -4 | 4 | 2.7
CC(=O)c1c[nH]c(C(=O)NCc2cccc(C(F)(F)F)c2)c1 | 3106 | -4 | -15 | 4 | 6 | 5 | 2.2
COc1ccccc1C(=O)NC(=O)COC(=O)CCS(=O)(=O)c1ccc(C)cc1 | 4408 | 11 | -1 | · | · | · | ·
O=C(CCCCC(=O)Nc1ccc(F)cc1F)Nc1ccc(F)cc1F | 4258 | -12 | -16 | 12 | 11 | 8 | -1.4
O=C(CC1CC2CCC1C2)N1CCN(S(=O)(=O)c2ccccc2F)CC1 (stereo not drawn) | 9119 | · | -4 | -2 | 2 | 6 | 0.5
NC(=S)N=Nc1c(O)[nH]c2ccccc12 | 7399 | 9 | -8 | 2 | 12 | -7 | 3.4
COc1ccc(C2CC(=O)C=C(c3ccccc3-c3ccccc3)C2)cc1 (stereo not drawn) | · | · | · | 7 | 5 | 30 | -7.3
O=C1c2ccccc2NC(c2ccccc2Cl)N1N=C1CCCCCC1 (stereo not drawn) | 2645 | 4 | -57 | 1 | -1 | -4 | 5.4
CCC(=O)Nc1cc(-c2nn(CC(=O)N3CCCCC3)c(=O)c3ccccc23)ccc1N1CCOCC1 | · | -3 | -3 | -6 | -7 | 3 | 2.5
N/C(=N/O)c1nc(N2CCCC2)nc(N(c2ccccc2)c2ccccc2)n1 | 2759 | -4 | 0 | · | · | · | ·
CN(CC(=O)NC1CCN(Cc2ccccc2)CC1)S(=O)(=O)c1ccc(Cl)s1 | 4219 | · | 2 | -7 | 13 | -3 | -2.7
C=CCOc1ccccc1CN1CCSCC1 | 10272 | 7 | -22 | 9 | 8 | 0 | 4.8
O=C(Nn1c(-c2ccccc2)nc2ccccc2c1=O)C1CCC1 | 21456* | -1 | -8 | 5 | 6 | 3 | 8.0
O=c1[nH]c(CN2CC=C(c3ccccc3)CC2)nc2scc(-c3cccs3)c12 | 5639 | 7 | 7 | 3 | 9 | 5 | -4.3
Cc1ccc(C)c(OCc2cc(C(=O)N3CCNC(=O)C3)no2)c1 | 5589 | 1 | -12 | 9 | 2 | -2 | 5.0
COc1ccc(CCNC(=O)C2CC(=O)N(c3ccc(F)cc3)C2)cc1OC (stereo not drawn) | 6013 | 0 | -13 | 7 | 17 | 11 | 4.8
CCCCN(C(C)=O)c1ccc(S(=O)(=O)NC2=NCCCCC2)cc1NC(C)=O | · | · | 8 | 5 | 1 | -3 | -1.6
CC1=CC(=C(C#N)C#N)C=C(C)N1CCN1CCNCC1 | 4230 | 4 | -9 | -4 | 7 | 3 | 4.8
Clc1cccc(Cl)c1Cn1cnc2c(NCc3ccco3)ncnc21 | 11411 | 2 | -20 | 2 | 3 | 8 | 4.6
COc1ccc(NC(=O)NCc2cccn2C)c(OC)c1 | 2186 | 5 | -2 | 11 | 2 | 2 | 14
C[C@@H]1CN([C@@H](C)CO)C(=O)c2cccc(NS(C)(=O)=O)c2O[C@H]1CN(C)Cc1ccc(C(=O)O)cc1 | 4078 | · | -24 | 5 | 16 | -1 | -13
Later entries
SMILES | Autofluor counter | BJeLR viability | PrP UTR inh | Mtb hypoxia inh | Mtb hypoxia inh growth | Sa ugtP lethal | RN4220 kill
Cc1ccc(C(=O)NCc2ccccc2CN2CCCC2)cc1S(=O)(=O)N1CCOCC1 | 6450 | · | -7 | 7 | 8 | -1 | -2.3
CC(O)CNc1ccc([N+](=O)[O-])cc1S(=O)(=O)N1CCOCC1 (stereo not drawn) | 4362 | 1 | 9 | -4 | -8 | 5 | 1.0
c1csc(CNCCCN2CCOCC2)c1 | 3450 | 6 | -20 | 9 | 0 | -4 | 4.9
CC(=O)c1ccc(O)c(CSc2nncn2C)c1 | 3377 | -11 | -16 | 10 | -3 | 1 | 0.1
Oc1oc(-c2cccc3ccccc23)nc1C=Nc1nccs1 | · | · | · | -9 | 15 | -14 | 4.7
COc1ccc(Cn2c(=S)[nH]c3ccccc3c2=O)cc1 | 3809 | -6 | -33 | 10 | 4 | -21 | 3.0
